From PubChem
ClpP mod: qHTS Assay for Activators of ClpP | ATP-dependent Clp protease proteolytic subunit (Bacillus subtilis (strain 168)), P80244 | purified B. subtilis ClpP, FRET peptide cleavage, 20 min | Potency, µM (series often up to 57.5 µM), for inactives: top-dose activity change, negative = active | actives 1.9% (n = 340,000) | AID 651965, 2013; active = well fitted falling curve with a large enough effect; inconclusive = small, poorly fitted or top-dose-only effect; inactive = no such curve, though single readings can be large or run the other way; further: potency means the concentration at half of the fitted maximal effect; the source files actives as falling curves though it sought activators and does not explain the sign; nearly all actives have a fitted effect of over 65% in size; many hits overshoot -100%
Target sequence (P80244 whole entry, looked up): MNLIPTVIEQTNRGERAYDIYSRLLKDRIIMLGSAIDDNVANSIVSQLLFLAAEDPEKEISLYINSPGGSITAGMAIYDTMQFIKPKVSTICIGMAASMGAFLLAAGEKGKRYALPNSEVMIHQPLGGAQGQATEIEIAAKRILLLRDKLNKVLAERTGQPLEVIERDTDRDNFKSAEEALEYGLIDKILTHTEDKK
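Purified B. subtilis ClpP, 10 microg/mL final in Tris/HCl pH8 with KCl, BSA, glycerol and Tween-20, cleaved an Abz/nitrotyrosine-quenched decapeptide. Fluorescence (ex 320, em 430) was read at 0 and 20 min at room temperature. Delta was normalized to 5.8 microM ADEP and DMSO/no-enzyme controls.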
gsp agonist: activates gsp, the McCune-Albright syndrome mutation; gsp mutant cells, cAMP HTRF, 30 min; control for the full effect not named in the record; Potency, µM (top dose mostly 76.9 µM), for inactives: at the top dose activation (cAMP increase), usual class: activators; actives 0.13% (n = 340,000); active = well fitted activation curve with a large enough effect; inconclusive = small, poorly fitted or top-dose-only effect, or another doubt; inactive = no such curve, though single readings can be large or run the other way; cell line not stated here;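 further: phosphodiesterase inhibitor Ro 20-1724 added with compounds to block cAMP breakdown; potency means the concentration at half of the fitted maximal effect; nearly all actives have a fitted effect of over 60% in size; about a fifth of the inactives were tested at one dose only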
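Cells stably selected in G418 were plated at 2000/well, grown 16-24 hr, then given compounds in DMSO with the PDE inhibitor […] (300 uM solution added) for 30 min at 37C; cAMP was read by HTRF.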
Sfp inh: inhibitors of Bacillus subtilis Sfp phosphopantetheinyl transferase; Q9F4F7; Biochemical Sfp PPTase activity, qHTS; Potency, µM, without a hit: max response, negative = inhibition, hits mostly inhibitors; actives 3.5% (n = 310,000); AID 1490; active means well fitted inhibition curve with a large enough effect; inconclusive means small, poorly fitted or top-dose-only effect, or another doubt; inactive means no such curve, though single readings can be large or run the other way;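 further: the enzyme is Sfp with the accession as filed and its product quenches rhodamine fluorescence; potency means the concentration at half of the fitted maximal effect; 0% = enzyme reaction without inhibitor and -100% = no enzyme wells; top concentration of the series not given in the record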
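Sfp 15 nM + cpd, 15 min RT; start w/ rhodamine-CoA 5 uM, BHQ-2-YbbR 12.5 uM (final); 50 mM Hepes pH 7.6, 10 mM MgCl2, 0.01% NP-40, 0.01% BSA; read 525/598 nm at 0 and 30 min.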
TRPML1 inh: human mucolipin-1 channel inhibition; Q9GZU1; TRPML1-inducible cells, Ca2+ dye fluorescence, FDSS; hits give low values; inhibition of EC80 agonist-evoked calcium signal; activity change, negative = inhibition, % (no concentration beside the values); actives 0.02% (n = 390,000); in the data active means activity change below about -50%; inconclusive means about -30% to -50%; inactive means above about -30%;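 further: stimulus is agonist 54-4 at its EC80 concentration; on the % scale 0 is the no-effect control and ±100 the full control effect; compound concentration not given in the record; the text of the record puts the active cut at -80%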
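Tet-induced TRPML1-DL cells loaded with Ca8 no-wash calcium dye were read kinetically on FDSS. Compound addition was followed by EC80 agonist 54-4 (4 uM final); inhibition was read over 110 s.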
Menin MLL FP FL: menin-MLL binding inhibition, fluorescein peptide | Fluorescence polarization, fluorescein-MLL peptide displacement from menin | FP activity change, % at 61.4 µM | 290,000 tested, under 10 active | AID 1766; inconclusive = falling polarisation curve, or a change in total fluorescence; inactive = total fluorescence flat and polarisation flat or rising; no compound was filed as active; the % refers to the polarisation; negative = inhibition;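 further: % of control where 0% means no effect; inhibitors lower the polarisation; unlabelled MLL peptide was the positive control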
gsp antagonist: antagonists of gsp mutant (McCune-Albright syndrome). actives 0.4% (n = 340,000). Potency, µM (series often up to 76.9 µM), without a hit: at the highest dose activity change, negative = inhibition, usual class: inhibitors. gsp-mutant cells, cAMP HTRF, 30 min; control for the full effect not named in the record; active = falling curve of any shape with a large fitted effect; inconclusive = falling curve, mostly with a smaller effect; inactive = flat or rising curve; cell line not stated here;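 further: intracellular cAMP measured with PDE inhibitor Ro 20-1724 present during compound exposure; potency means the concentration at half of the fitted maximal effect; on the % scale 0 is the no-effect control and ±100 the full control effect; nearly all actives have a fitted effect of over 65% in size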
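Cells, 2000/well, grown 16–24 h in DMEM 10% FBS with 0.5 mg/ml G418, then compounds plus […] (300 uM addition stock), 30 min at 37C. cAMP read by HTRF (cAMP-d2 and anti-cAMP antibody-K in lysis buffer) after 30 min RT.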
TRPV1 PAM: human TRPV1 potentiation; Q8NER1; TRPV1-expressing cells, Fluo-8 calcium influx, capsaicin EC20 potentiation; host cell line not named in the record; control for the full effect not named in the record; potentiation, % at 8.33 µM; actives 0.02% (n = 320,000); AID 540277; active means potentiation above 80%; inconclusive means 30% to 80%; inactive means below 30%; further: 0% is about no effect
Target sequence (Q8NER1 whole entry, looked up): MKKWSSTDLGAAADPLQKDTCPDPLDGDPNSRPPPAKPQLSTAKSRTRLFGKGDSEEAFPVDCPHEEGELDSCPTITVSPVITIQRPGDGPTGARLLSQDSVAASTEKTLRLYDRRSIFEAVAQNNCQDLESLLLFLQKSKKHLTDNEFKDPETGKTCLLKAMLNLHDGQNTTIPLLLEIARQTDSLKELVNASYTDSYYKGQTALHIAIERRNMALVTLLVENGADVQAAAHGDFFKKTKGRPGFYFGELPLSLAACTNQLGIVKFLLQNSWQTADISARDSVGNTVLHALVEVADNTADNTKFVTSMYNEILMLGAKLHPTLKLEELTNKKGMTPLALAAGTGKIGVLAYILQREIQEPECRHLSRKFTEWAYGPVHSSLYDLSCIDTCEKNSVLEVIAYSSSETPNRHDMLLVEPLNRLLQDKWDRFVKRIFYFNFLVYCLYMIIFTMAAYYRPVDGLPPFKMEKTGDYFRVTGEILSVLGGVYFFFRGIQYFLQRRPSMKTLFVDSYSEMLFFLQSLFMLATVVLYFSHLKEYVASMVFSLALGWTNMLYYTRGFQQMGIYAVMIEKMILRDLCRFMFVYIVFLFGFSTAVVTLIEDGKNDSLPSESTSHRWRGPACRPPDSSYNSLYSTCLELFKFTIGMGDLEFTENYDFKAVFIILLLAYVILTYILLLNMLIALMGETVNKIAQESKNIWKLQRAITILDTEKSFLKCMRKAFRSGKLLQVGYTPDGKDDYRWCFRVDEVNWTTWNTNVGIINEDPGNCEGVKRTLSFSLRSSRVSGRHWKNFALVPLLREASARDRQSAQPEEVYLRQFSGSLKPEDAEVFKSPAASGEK
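Fluo-8 calcium influx in TRPV1-expressing cells, kinetic read (ex 480/em 520 nm). Compound added and read 3 min for agonist activity, followed by capsaicin at EC20 final and 2 min further read for enhancement.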
* marks the source's active call; other numbers are inactive results; ? = inconclusive; nt = not tested or not shown; & = joins results of further samples; [ ] = remark or other dose.

#	molecule	ClpP mod	gsp agonist	Sfp inh	TRPML1 inh	Menin MLL FP FL	gsp antagonist	TRPV1 PAM
1	Cc1ccc2c(c1)/C(=N/OS(=O)(=O)c1ccccc1)CCS2	-0.7%	-49%[inhibitor]	nt	2	nt	-6%	nt
2	COc1ccc(Cl)cc1NC(=O)CN(C)C(=O)Cn1cnc2c1c(=O)n(C)c(=O)n2C	-1.7%	8%[15.4 µM]	nt	-8	nt	11%	-2
3	Cc1ccccc1OCC(O)Cn1c2ccccc2c2ccccc21 (stereo not drawn)	-20%	-20%	2%	13	4.7	-8%	4
4	COC(=O)c1ccc(Cl)cc1N(Cc1c(F)cccc1Cl)S(C)(=O)=O	nt	-8%	4%	-6	0.0	-2%	-14
5	Cc1ccc2nc(C(F)C(F)(F)F)[nH]c2c1 (stereo not drawn)	nt	?	24%	-6	-5.1	?	-4
6	CCN(C(=O)CSc1nc2ccccc2n1CC)C1CCS(=O)(=O)C1 (stereo not drawn)	1.0%	7%[15.4 µM]	22%	17	0.1	-9%	5
7	O=C(Nc1ccccc1)Oc1ccc[nH]c1=O	-4.1%	3%	6.3µM*	-21	3.5	5%	-14
8	O=c1c2ccccc2ncn1-c1ccc(Cl)c(Cl)c1	-2.9%	-16%	-3%	-10	-0.1	7%	?
9	O=C(COC(=O)c1ccc(O)cc1)Nc1ncc(Cl)cc1Cl	nt	-40%[inhibitor]	7%	82	0.6	-8%	-2
10	CCOC(=O)c1ccccc1NC(=O)C1=COCCO1	-1.5%	-4%	nt	-11	nt	5%	22

(more compounds)
#	molecule	ClpP mod	gsp agonist	Sfp inh	TRPML1 inh	Menin MLL FP FL	gsp antagonist	TRPV1 PAM
11	Cc1ccc(OC(C)c2nnc(N)s2)cc1Cl (stereo not drawn)	-2.5%	-28%	4%	-6	2.6	-5%	-8
12	CCN(CC)S(=O)(=O)c1ccc(-c2nnc(SCC(=O)Nc3nnc(C)s3)n2CC)cc1	-4.6%	-15%	?	-11	0.8	-30%	-6
13	COCCN(C(=O)COC(=O)C1CC1)c1c(N)n(Cc2ccccc2)c(=O)[nH]c1=O	-2.6%	-20%	nt	9	nt	6%	12
14	CCCCCC(=O)NC(NC(=S)Nc1ccc(S(N)(=O)=O)cc1)C(Cl)(Cl)Cl (stereo not drawn)	-3.0%	-39%[inhibitor]	18%	15	0.0	1%	-10
15	COC(=O)c1c(C)oc(C)c1S(=O)(=O)N(C)C1CCCCC1	nt	11%	3%	11	-0.9	5%	18
16	Cn1c(CCc2nc3ccccc3[nH]2)nnc1SCC#N	nt	-7%[15.4 µM]	-11%	8	-3.8	3%	1
17	COc1ccccc1NC(=O)Nc1cnccn1	nt	-18%	8%	-7	-6.0	5%	14
18	Clc1ccc(Cc2noc(CN3CCN(c4ccccc4)CC3)n2)c(Cl)c1	0.6%	-53%[inhibitor]	5%	0	3.6	-10%	13
19	N#CC(c1ccccc1)c1cnccn1 (stereo not drawn)	0.7%	nt	nt	-11	nt	6%	23
20	O=C1SCC(c2ccccc2)=NN1Cc1ccccc1	1.4%	-1%	2%	-10	0.4	-5%	-16

(further entries)
#	molecule	ClpP mod	gsp agonist	Sfp inh	TRPML1 inh	Menin MLL FP FL	gsp antagonist	TRPV1 PAM
21	CCc1nc(Nc2cc(OC)ccc2OC)c2oc3ccccc3c2n1	nt	2%	-13%	8	-1.6	-5%	-5
22	Cc1cc(C)c(S(=O)(=O)Nc2ccc3c4c(cccc24)CC3)c(C)c1	-1.2%	-48%[inhibitor]	?	23	17	21%	-13
23	Cc1cc(C)cc(NC(=O)CCCn2nc(C)c3c(C)n(-c4ccccc4)nc3c2=O)c1	-3.5%&-3.7%	19%	12%	9&-12	-2.5	0%	-5
24	COc1cccc(CN2CC(C(=O)NCc3ccc(C)c(F)c3)CCC2=O)c1 (stereo not drawn)	?	-7%[15.4 µM]	-4%	13	-6.5	-2%	13
25	CC(NC(=O)CCC(=O)c1cccs1)c1ccccc1 (stereo not drawn)	2.3%	-5%	nt	-10	nt	5%	0
26	COc1ccc(S(=O)(=O)N2CCOCC2)cc1NC(=O)CSc1nnc2c(n1)[nH]c1ccccc12	nt	9%[15.4 µM]	10%	0	-1.1	-15%	14
27	COc1ccc(OC)c(S(=O)(=O)N2CCC(C(=O)NCc3ccccn3)CC2)c1	nt	-41%[inhibitor]	5%	13	0.7	-7%	0
28	CCOc1cc(N(CC)CC)ccc1/C=C(/C#N)c1nc2ccccc2[nH]1	0.0%	-26%	3%	13	?	-20%	-11
29	CCN(C(=O)c1ccnn1C)c1ccccc1	-2.1%	1%	0%	16	3.6	10%	2
30	Cc1ccc(C(C)n2cc(C(=O)NCc3cccnc3)nn2)cc1 (stereo not drawn)	-1.6%	10%	0%	-24	0.1	17%	-20

Additional records follow.
#	molecule	ClpP mod	gsp agonist	Sfp inh	TRPML1 inh	Menin MLL FP FL	gsp antagonist	TRPV1 PAM
31	O=C1c2ccccc2C(=O)N1CCCCCCN1C(=O)c2ccccc2C1=O	nt	-5%	nt	7	nt	-1%	nt
32	Cc1cc(C)nc(N(C#N)CC(=O)N2CCC(C(N)=O)CC2)n1	-3.8%	?	-6%	-12	-2.9	10%	-10
33	COc1ccccc1N1CCN(CC(=O)Nc2ccc(Cl)c(C(F)(F)F)c2)CC1	0.7%	-26%	-9%	1	0.5	-14%	-2
34	Cc1ccc(C)c(N(CC(=O)NC(C)(C)C)C(=O)CCC(=O)Nc2nccs2)c1	-0.8%	-1%	-6%	2	-0.9	-18%	1
35	COc1ccccc1NC(=O)CNS(=O)(=O)c1ccccc1	-0.5%	-17%	17%	-20	1.8	0%	-20
36	C=CCOc1ccccc1CN1CCCC(CCC(=O)N(C)CCc2ccccn2)C1 (stereo not drawn)	nt	27%	5%	-5	-3.7	-6%	-1
37	COc1ccc([C@H]2C[C@@H](n3cc(C4CC4)nn3)[C@H](O)CN2CC2CCCCC2)cc1	1.0%	-41%	nt	1	nt	nt	nt
38	O=C(CSc1nnc(N2CCCC2)n1-c1cccc(Cl)c1)N1CCN(c2ccccn2)CC1	-17%	-12%	nt	6	nt	nt	nt
39	COc1ccc(C(C)=O)cc1COC(=O)CCCN1C(=O)c2ccccc2C1=O	0.4%	-7%	6%	10	0.2	-11%	6
40	c1ccc2cc3[nH]c(CN4CCOCC4)nc3cc2c1	?	6%	-8%	2	-1.3	26%	-46

Continued.
#	molecule	ClpP mod	gsp agonist	Sfp inh	TRPML1 inh	Menin MLL FP FL	gsp antagonist	TRPV1 PAM
41	C[C@@H]1CN([C@@H](C)CO)C(=O)CCCn2nncc2CO[C@H]1CN(C)C(=O)Nc1ccc(-c2cccs2)cc1	-23%	-19%	nt	-5	nt	nt	nt
42	CCC(=O)N1CCc2cc(S(=O)(=O)Nc3ccc4c(c3)OCCO4)ccc21	-2.3%	26%	17%	-2	1.0	?	9
43	CCOc1ccc(NC(=O)C(Cc2ccccc2)N2C(=O)c3cccc4cccc(c34)C2=O)cc1 (stereo not drawn)	nt	2%	10%	-5	1.6	-6%	8
44	Cn1cc(C(=O)Nc2ccc3c(c2)CCC3)cn1	-2.1%	3%	7%	-4	-1.5	15%	-17
45	CCOC(=O)CC(=O)c1[nH]c(C)c(C(=O)OCC)c1C	-0.9%	20%	5%	-8	0.3	-1%	10
46	COc1ccc(C(=O)OCC(=O)NCc2cccs2)c(OC)c1OC	0.2%	12%	nt	-5	nt	7%	nt
47	CCc1noc(C)c1C(=O)OCC(=O)c1ccc(OC)c(OC)c1	-3.6%	21%	nt	3	nt	2%	1
48	CCNC(=O)c1cc(S(=O)(=O)N(C)C)c(Cl)cc1Cl	nt	-1%[15.4 µM]	8%	-8	1.1	-5%	-5
49	O=C1c2ccccc2C(=O)C12Cc1ccccc1N1CCN(c3ccccc3)CC12 (stereo not drawn)	-2.7%	-1%	-9%	-8	-0.6	5%	5
50	COC(=O)c1ccc(C2Nc3ccc(/C(C)=N/NC(=O)C(OC)c4ccccc4)cc3C3C=CCC32)cc1 (stereo not drawn)	-5.4%	3%	?	0	7.9	-11%	21

Complete entries from above.
`CCOC(=O)CC(=O)c1[nH]c(C)c(C(=O)OCC)c1C` across the screens: ClpP mod: -0.9%; gsp agonist: 20%; Sfp inh: 5%; TRPML1 inh: -8; Menin MLL FP FL: 0.3; gsp antagonist: -1%; TRPV1 PAM: 10
`C[C@@H]1CN([C@@H](C)CO)C(=O)CCCn2nncc2CO[C@H]1CN(C)C(=O)Nc1ccc(-c2cccs2)cc1` across the screens: ClpP mod: -23%; gsp agonist: -19%; Sfp inh: nt; TRPML1 inh: -5; Menin MLL FP FL: nt; gsp antagonist: nt; TRPV1 PAM: nt
`CCc1noc(C)c1C(=O)OCC(=O)c1ccc(OC)c(OC)c1` across the screens: ClpP mod: -3.6%; gsp agonist: 21%; Sfp inh: nt; TRPML1 inh: 3; Menin MLL FP FL: nt; gsp antagonist: 2%; TRPV1 PAM: 1

Next records:
#	molecule	ClpP mod	gsp agonist	Sfp inh	TRPML1 inh	Menin MLL FP FL	gsp antagonist	TRPV1 PAM
51	COc1ccc([N+](=O)[O-])cc1NC(=O)C(C)Sc1nc(-c2ccccc2)cs1 (stereo not drawn)	-3.1%	-3%[15.4 µM]	-10%	16	1.7	-5%	?
52	CC1=Nc2ccc(C)cc2/C1=C/c1c(N)n2oc(C)cc2nc1=O	nt	?	7%&7%	-3&-4	?	-2%&-2%	?
53	Cc1cc(C)c[n+](CC(=O)c2ccc(C)c([N+](=O)[O-])c2)c1	-4.2%	0%	13%	-15	-5.6	7%	-3
54	COc1ccc(C(CNC(=O)c2cccc(NS(=O)(=O)c3ccc(Br)cc3)c2)N(C)C)cc1 (stereo not drawn)	nt	-9%[15.4 µM]	nt	6	nt	-6%	3
55	COc1ccc(CNC(=O)COc2cccnc2[N+](=O)[O-])cc1	2.0%	?	13%	-13	-5.3	17%	-4
56	COc1ccc(C(NC(=O)c2ccc(F)cc2)c2ccccc2)cc1 (stereo not drawn)	-2.9%	-62%[inhibitor]	3%	12	0.3	-9%	7
57	O=S(=O)(NCCCc1ccccc1)c1ccccc1	1.7%	-24%	4%	7	2.6	7%	-11
